# Screens from PubChem BioAssay.
# BmaI1: BmaI1 acyl-homoserine lactone synthase inhibition – biochemical, fluorescence intensity, with counterscreen (AID 720554); BmaI1 enzyme assay, fluorescence intensity; hits give high values; test concentration not given here; a few actives read low; strong numbers were not always called active; inhibition, %; 0.4% of 12,000 active;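 active = both replicates within 2 robust z-scores of the inhibited control and a quiet counterscreen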;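 also: 0% = uninhibited enzyme and 100% = inhibited control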
# BmaI1 counterscreen: second read-out of BmaI1, no call of its own (marks repeat the call); inhibition, %; measured here: counterscreen; design of the counterscreen not given here;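 first of two replicates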
# * marks the source's active call; other numbers are inactive results.
SMILES,BmaI1,BmaI1 counterscreen
O=C(COc1ccc(F)cc1)N/N=C/c1ccc2c(c1)OCCO2,8,16
COc1ccc(NC(=S)N2CCCCC2)cc1,21,4
Cc1cc(C(=O)CSCc2nnc3n(CCC(C)C)c(=O)c4ccccc4n23)c(C)n1C,16,9
CC(C)CCn1c(=O)c2ccccc2n2c(COC(=O)C3CC=CCC3)nnc12 (configuration not stated),22,14
CC(C)C(=O)N1CCCSC1=Nc1ccccc1,12,6
CC1CCCCN1CCCNC(=O)c1ccc(Br)cc1 (configuration not stated),19,6
CCCn1c(=O)n(C)c(=O)c2c(SCC(=O)/C(C#N)=C(\C)N)nc(CC(C)C)nc21,14,7
CC(C)CCN1C(=O)c2ccc(C(=O)C(C#N)c3ccccn3)cc2C1=O (configuration not stated),28,-1
COc1ccccc1NC(=O)C(C)OC(=O)c1cccc(-n2cnnn2)c1 (configuration not stated),10,2
Cc1ccc(C(=O)C(C)Sc2nncn2-c2ccccc2)cc1 (configuration not stated),10,4
COc1ccc(C(=O)Cn2ccsc2=NC(C)=O)cc1,12,2
CC(OC(=O)COc1ccc(-c2ccccc2)cc1)C(N)=O (configuration not stated),15,20
CCCn1c(SC)nc2ccccc2c1=O,2,11
Cc1ccc(CC(C#N)Sc2n[nH]c(-c3ccccc3F)n2)cc1 (configuration not stated),24,14
CC1=CC(=O)C(C(=O)/C=C/c2ccccc2)C(=O)O1 (configuration not stated),10,2
C/C(=N\NC(=O)Cc1csc(N2CCOCC2)n1)c1ccccc1,-2,-4
Cc1cc(C)n2nc(SC(C)C(=O)NC(=O)NC3CCCCC3)nc2n1 (configuration not stated),12,10
CC(=O)Nc1ccc(SCC(=O)c2cc(C)n(C)c2C)cc1,12,5
Cc1cc(C(=O)OCC(=O)N(C)c2ccccc2)c2ccccc2n1,13,2
CC(C)C(Sc1nncn1C(C)C)C(=O)NC(N)=O (configuration not stated),14,13
C[C@H](CS)C(=O)N1CCC[C@H]1C(=O)O,2,6
CCC(C)(C)NC(=O)Cc1ccc2c(c1)OCCO2,12,4
CCN(CC)S(=O)(=O)c1ccc(NC(=O)C2=NN(c3ccccc3)C(=O)CC2)cc1,4,1
Cc1ccc(OCc2nc(CC(=O)O)cs2)cc1,25,9
Cc1nn(C2CCS(=O)(=O)C2)c2nc(C3CC3)cc(C(=O)NC3CCCCCC3)c12 (configuration not stated),11,6

# Complete entries, looked up by structure. Values in the order: BmaI1	BmaI1 counterscreen
# Profile of Cc1cc(C(=O)OCC(=O)N(C)c2ccccc2)c2ccccc2n1 → 13	2
# Profile of CCCn1c(=O)n(C)c(=O)c2c(SCC(=O)/C(C#N)=C(\C)N)nc(CC(C)C)nc21 → 14	7
# Profile of C/C(=N\NC(=O)Cc1csc(N2CCOCC2)n1)c1ccccc1 → -2	-4
# Profile of CCN(CC)S(=O)(=O)c1ccc(NC(=O)C2=NN(c3ccccc3)C(=O)CC2)cc1 → 4	1

# Other compounds
SMILES,BmaI1,BmaI1 counterscreen
Cc1nnc(SCC(=O)NCC2CCCO2)n1C1CCCCC1 (configuration not stated),27,-1
O=C1/C(=C/c2cccc(F)c2)COc2ccccc21,8,6
CCCCNc1ncc2c(n1)c(=O)c(C#N)c1[nH]c3ccccc3c(=O)n12,8,-4
O=S(=O)(Nc1ccccc1NS(=O)(=O)c1ccc(F)cc1)c1ccc(F)cc1,36,22
C(=C\c1ccccc1)/CSc1nnnn1-c1ccccc1,8,7
CC1(C(=O)Nc2ccccc2N2CCOCC2)Cc2ccccc2C(=O)O1 (configuration not stated),12,-10
O=C(COc1cccc2ccccc12)Oc1ccc(-c2nnco2)cc1,28,7
CCC1CCCCN1C(=O)COc1cccc2c1OC(C)(C)C2 (configuration not stated),20,0
Cc1[nH]c2ccccc2c1C(=O)CSc1nc2cc(S(=O)(=O)N3CCCCC3)ccc2o1,12,-2
O=C(CCc1ccc(S(=O)(=O)N2CCOCC2)cc1)N1CCN(Cc2ccccc2)CC1,-8,-12
O=C1CN(C(=O)COC(=O)C2CCN(S(=O)(=O)c3ccccc3)CC2)c2ccccc2N1,6,3
Cc1c(-c2nc3ccccc3s2)oc2ccccc12,14,10
CCCN(Cc1nnc(-c2ccco2)o1)C(=O)CSc1nc2ccccc2n1C,-3,-14
COc1ccccc1NC(=O)C(C)Sc1nnc(N)s1 (configuration not stated),16,8
Cc1cc2oc(=O)cc(CN3CCCc4ccccc43)c2cc1C,10,5
COc1ccc(Cl)cc1-c1nc(SCC(=O)NCC(F)(F)F)n[nH]1,12,17
CN(Cc1ccccc1)C(=O)CN1CCN(C(c2ccccc2)c2ccccc2)CC1,15,10
CN(CCO)CC(O)c1ccccc1 (configuration not stated),6,4
COc1cccc(C(=O)NCc2ccccc2F)c1,-2,0
COc1ccc(C2=NN(C(=O)CSc3n[nH]c(-c4ccc(Br)cc4)n3)C(c3ccco3)C2)cc1 (configuration not stated),10,4
CC(C)(CNC(=O)C1c2ccccc2-c2ccccc21)N1CCOCC1,8,10
Nc1c2c(nn1-c1ccccc1)CCC2,48,46
CC1CN(S(=O)(=O)c2ccc(NC(=O)CN3C(=O)COc4ccccc43)cc2)CC(C)O1 (configuration not stated),14,9
Cc1ccc(CN(C)Cn2nc(-c3c[nH]c4ccccc34)n(CC3CCCO3)c2=S)o1 (configuration not stated),36,28
O=C(CSc1nnc(-c2ccc(OC(F)F)cc2)o1)NCC12CC3CC(CC(C3)C1)C2,16,13

# Further structures.
SMILES,BmaI1,BmaI1 counterscreen
N#Cc1oc2ccccc2c1NC(=O)COC(=O)CSc1ccc2ccccc2c1,12,14
CN(CC(=O)Nc1ccc(N2CCOCC2)cc1)CC(=O)Nc1ccccc1C(=O)c1ccccc1,14,1
CNC(=O)c1sc(CN2C(=O)c3ccccc3S2(=O)=O)nc1C,91*,-7.0*
NNc1nc(-c2ccccc2)c2cc(Br)ccc2n1,91*,16*
O=S(=O)(Nc1ccc2c(c1)OCO2)c1ccc2ccccc2c1,22,10
O=C(CNCCc1ccc(F)cc1)N1N=C(c2ccc(Cl)cc2)CC1c1ccco1 (configuration not stated),-14,0
O=C(NC1CCCCCC1)C1=NN(C2CCS(=O)(=O)C2)C(=O)CC1 (configuration not stated),12,0
O=C(OCn1nnc2ccccc2c1=O)C1COc2ccccc2O1 (configuration not stated),8,10
N/C(=N\N=C1CCCCCC1)SCn1nnc2ccccc2c1=O,10,4
O=C1NC2(CCCCC2)N(C(=O)COc2ccc(Cl)cc2)C2=C1CCCC2,2,-2
Cc1cc(SCC(=O)NC(=O)NCc2ccco2)nc2c(C)cccc12,12,4
CC(=O)Nc1ccc(SC(C)C(=O)NC(N)=O)cc1 (configuration not stated),13,1
NC(=O)COC(=O)c1cccc(S(=O)(=O)N2CCc3ccccc3C2)c1,16,9
COC(=O)c1c(O)c(C=Nc2ccc(Br)cc2)c(=O)n2c1CCC2,18,4
COc1ccc(CN2C(=O)C(C)N(c3ccc(C)cc3)C2=O)cc1F (configuration not stated),28,12
CCn1c(SC(C)C(=O)c2ccc(Br)cc2)nnc1-c1cccs1 (configuration not stated),16,1
CCc1ccc2nc(NC(=O)Cc3csc(NC(=O)c4ccco4)n3)sc2c1,15,4
COc1cc(/C=C/C(=O)N(Cc2nnc(-c3ccc(Cl)cc3)o2)C2CCCC2)cc(OC)c1OC,4,3
O=C(COC(=O)C1CC2CCCC(C1)C2=O)Nc1cccc2nsnc12 (configuration not stated),24,5
CN(C)CC(C)(C)NS(=O)(=O)c1ccc(Cl)cc1,8,3
O=C(COc1ccc2c(c1)CCC2)NCCc1ccccn1,10,10
CCOC(=O)/C(C#N)=c1\s/c(=C\Nc2ccccc2)c(=O)n1CC,17,20
Cc1cccc(-n2nc(C)c3c2NC2=C(C(=O)CCC2)C3c2ccccn2)c1 (configuration not stated),2,-8
COc1ccc(C)cc1CCNCc1ccncc1,-4,-3
COc1ccccc1S(=O)(=O)N1CCNC(=O)C1,2,-2

# Quoted from the listing:
# In BmaI1, O=C(COc1ccc2c(c1)CCC2)NCCc1ccccn1 shows 10
# In BmaI1, Cc1cccc(-n2nc(C)c3c2NC2=C(C(=O)CCC2)C3c2ccccn2)c1 (configuration not stated) shows 2
# In BmaI1 counterscreen, COc1ccc(CN2C(=O)C(C)N(c3ccc(C)cc3)C2=O)cc1F (configuration not stated) shows 12
# In BmaI1 counterscreen, COc1ccc(C)cc1CCNCc1ccncc1 shows -3

# The list goes on.
SMILES,BmaI1,BmaI1 counterscreen
Cc1cc(C(=O)N(Cc2ccco2)Cc2cccs2)no1,6,8
O=C(CSc1nc2ccccc2o1)C12CC3CC(CC(C3)C1)C2,5,0
CNC(=O)NC(=O)C(Sc1nnc(-c2ccco2)n1Cc1ccccc1)c1ccccc1 (configuration not stated),10,0
Brc1ccc2[nH]cc(CNCCN3CCOCC3)c2c1,19,5
CCOC(=O)/C(=N\Nc1cccc(C(F)(F)F)c1)N1CCCC1,34,14
COc1ccccc1C1=Nn2c(Cc3cccc4ccccc34)nnc2SC1,44,2
CC(C)NC(=O)C(Sc1ccccc1)c1ccccc1 (configuration not stated),14,10
CN(C)S(=O)(=O)c1ccc(C(=O)Oc2cc(Cl)c[nH]c2=O)cc1,68,36
Cc1ccc(/C=N/NC(=O)CNc2cccc(C(F)(F)F)c2)o1,9,10
Cc1nc2sccn2c1C(=S)NC(=O)c1ccccc1F,-6,2
Cc1occc1-c1nnc(SC(C)C(=O)NC2CCCc3ccccc32)n1-c1ccccc1 (configuration not stated),1,0
O=C(Nc1ccc(-n2cnnn2)cc1)C1CC(=O)N(C2CCCC2)C1 (configuration not stated),10,4
Nc1nc(-c2ccc(Cl)cc2Cl)cs1,9,8
CCN(CC)S(=O)(=O)c1ccc(N2CCc3ccccc32)nc1,7,-1
O=c1c2ccccc2nnn1CN1CCN(S(=O)(=O)/C=C/c2ccccc2)CC1,8,7
O=C(COC(=O)c1cccc(S(=O)(=O)N2CCCCC2)c1)NCc1ccccc1,14,13
O=C(NCCCSc1ccccc1)Nc1ccccc1,22,14
O=C1CCC2(C(=O)O)SCCN12 (configuration not stated),6,1
CCn1c(CCCCCCN)nnc1SC,8,2
O=C(O)/C=C/c1ccc(-c2ccccc2)s1,16,11
COc1ccc(-n2cnnc2SCC(=O)N2CCN(S(=O)(=O)c3ccccc3)CC2)cc1,7,10
C=CCOC(=O)c1sc(N2CCCC2=O)c(C(=O)OCC)c1C,-13,4
CCOC(=O)C1CCCN(c2nc3ccccc3nc2C(C#N)C(=O)OC)C1 (configuration not stated),2,4
O=C1CCC(C(=O)NCCc2ccc(Cl)cc2)=NN1,-6,5
O=C(NCCC(=O)N1CCCC1)Nc1ccc(Cl)c(Cl)c1,8,6

# In another format: three of the compounds above.
compound	BmaI1	BmaI1 counterscreen
COc1ccccc1C1=Nn2c(Cc3cccc4ccccc34)nnc2SC1	44	2
O=C1CCC2(C(=O)O)SCCN12 (configuration not stated)	6	1
Cc1ccc(/C=N/NC(=O)CNc2cccc(C(F)(F)F)c2)o1	9	10

# The list continues:
SMILES,BmaI1,BmaI1 counterscreen
Cc1cc(C)c(NC(=O)CCCN2CCCC2)c(C)c1,10,4
C=CCn1c(=O)n(CC=C)c(=O)n(CC(=O)NC(C)COC)c1=O (configuration not stated),0,4
O=C(NCCC(=O)N1CCN(c2ccc(F)cc2)CC1)c1ccco1,0,1
COC(=O)c1cc(-c2ccc3c(c2)OCO3)nc2onc(C)c12,5,6
CC(C)OCc1ccc(C(=O)O)cc1,11,2
O=C(CSc1ncc(C(F)(F)F)cc1Cl)NC(=O)CN1CCCC1=O,12,10
Oc1ccccc1-c1nnc2n1CCCCC2,8,1
CCN=C1NN=C(c2c[nH]c3ccccc23)CS1,24,30
CCO/C=C1/C(=O)N(c2ccc(OC)cc2)C(=O)c2ccccc21,26,14
CC1CN=C(NC2CCCCC2C)S1 (configuration not stated),4,1
CSc1ncccc1C(=O)OCC(=O)Nc1ccccc1C(=O)NC1CC1,19,10
COC(=O)c1ccc(OC)nc1,6,4
Cc1occc1-c1nnc(SCC(=O)c2ccc(OC(F)F)cc2OC(F)F)n1C,14,14
Cc1noc(C)c1COc1ncnc2ccccc12,11,4
O=C1CSc2ccc(C(=O)NCCSCc3ccco3)cc2N1,5,16
N#CCOC(=O)c1ccc(-n2cnnn2)cc1,29,0
Cc1cc(C(=O)Cn2cnc3sccc3c2=O)c(C)n1C1CC1,16,8
CC1Cc2ccccc2N1C(=O)COC(=O)c1ccc(Cl)cc1 (configuration not stated),9,2
C(=N\N1CCCCC1)/c1cn(-c2ccccc2)nc1-c1cccs1,6,-4
CN(C(=O)CSc1nnc(-c2ccccc2)n1-c1ccccc1)C1CCS(=O)(=O)C1 (configuration not stated),14,2
O=C(O)CSCC(=O)Nc1ccc(Cl)cc1,4,1
O=C(O)c1cccc(S(=O)(=O)Nc2ccc(N3CCCCC3)cc2)c1,53,-56
O=C(/C=C/C(=O)N1CCOCC1)Nc1nccs1,8,6
CN1CCC(=C2c3ccccc3C=Cc3ccccc32)CC1,59,10
CCCS(=O)(=O)N1CCCC1C(=O)O (configuration not stated),12,11

# Remaining list, next part.
SMILES,BmaI1,BmaI1 counterscreen
CN(Cc1ccccc1F)c1ccc(S(=O)(=O)N2CCCC2)cn1,10,3
C=CCN1C(=O)c2ccc(C(=O)OCC(=O)c3cc4ccccc4o3)cc2C1=O,6,4
CC(C)CNC(=O)CSc1nnc(-c2ccc(Cl)cc2)n1N,6,4
Cc1oc2nc[nH]c(=O)c2c1C(=O)Nc1cccc(C(F)(F)F)c1,16,2
Cc1ccc(-c2noc(CCCCCN=Cc3c(O)[nH]c(=O)[nH]c3=O)n2)cc1,15,15
Cc1cc(C)nc(NNC(=S)NCc2ccc3c(c2)OCO3)n1,42,0

# Given bar-delimited: entries from further up.
molecule | BmaI1 | BmaI1 counterscreen
Cc1ccc(-c2noc(CCCCCN=Cc3c(O)[nH]c(=O)[nH]c3=O)n2)cc1 | 15 | 15
CN(Cc1ccccc1F)c1ccc(S(=O)(=O)N2CCCC2)cn1 | 10 | 3
CC(C)CNC(=O)CSc1nnc(-c2ccc(Cl)cc2)n1N | 6 | 4
Cc1oc2nc[nH]c(=O)c2c1C(=O)Nc1cccc(C(F)(F)F)c1 | 16 | 2

# Only part of the results is shown; count on the stated rates, not on these rows.
